Assay outcomes deposited in PubChem by National Center for Advancing Translational Sciences (NCATS).
Sfp PPTase inh – inhibitors of Bacillus subtilis Sfp phosphopantetheinyl transferase | Biochemical Sfp PPTase activity, qHTS | AID 1490 | actives 3.5% (n = 310,000) | Q9F4F7 | Potency, µM, for inactives: max response, negative = inhibition, hits mostly inhibitors; active = well fitted inhibition curve with a large enough effect;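 note: the enzyme is Sfp with the accession as filed and its product quenches rhodamine fluorescence; potency is the fitted concentration of half-maximal effect; 0% = enzyme reaction without inhibitor and -100% = no enzyme wells; top concentration of the series not given in the record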
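Compounds were incubated with enzyme (final 15 nM) for 15 min at room temperature before substrate addition started the reaction. Fluorescence at 525 nm excitation, 598 nm emission was recorded immediately and after 30 minutes.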
Menin-MLL FL inh – menin-MLL binding inhibition, fluorescein peptide. AID 1766. 290,000 tested, under 10 active. FP activity change, % at 61.4 µM. Fluorescence polarization, fluorescein-MLL peptide displacement from menin; inconclusive = falling polarisation curve, or a change in total fluorescence; inactive = total fluorescence flat and polarisation flat or rising; no compound was filed as active; the % refers to the polarisation; negative = inhibition;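 note: % of control where 0% means no effect; inhibitors lower the polarisation; unlabelled MLL peptide was the positive control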
* = called active by the depositor; & = joins results of further samples; [ ] = another dose, or the depositor's remark.

SMILES	Sfp PPTase inh	Menin-MLL FL inh
C[C@@]12CC[C@H]3[C@@H](CCC4=CC(=O)CC[C@]43C)[C@H]1CC[C@H]2C(=O)CO	-5.5%	-0.8[24.8 µM]
CCCCCCCCCCCCOCCOCCOCCOCCOCCOCCOCCOCCOCCO	70.8µM*	-1.5&-0.8

These rows are one share of the data; count on the stated rates, not on these rows.
